Assay outcomes as filed in PubChem BioAssay.
UCH37 DUB inh = inhibitors of human UCH37 deubiquitinase, primary screen, biochemical, Ub-AMC cleavage, fluorescence; 0.33% of 330,000 active; inhibition, % (test concentration not listed); AID 588478, 2011; Ubiquitin carboxyl-terminal hydrolase isozyme L5 (Homo sapiens), Q9Y5K5; purified proteasome/UCH37;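 active = mean of two replicates above 20%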;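 also: 0% = compound-free wells with enzyme and 100% = wells lacking proteasome; stock transfer was 100 nL into about 20 µL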
Target sequence (Q9Y5K5 whole entry, looked up): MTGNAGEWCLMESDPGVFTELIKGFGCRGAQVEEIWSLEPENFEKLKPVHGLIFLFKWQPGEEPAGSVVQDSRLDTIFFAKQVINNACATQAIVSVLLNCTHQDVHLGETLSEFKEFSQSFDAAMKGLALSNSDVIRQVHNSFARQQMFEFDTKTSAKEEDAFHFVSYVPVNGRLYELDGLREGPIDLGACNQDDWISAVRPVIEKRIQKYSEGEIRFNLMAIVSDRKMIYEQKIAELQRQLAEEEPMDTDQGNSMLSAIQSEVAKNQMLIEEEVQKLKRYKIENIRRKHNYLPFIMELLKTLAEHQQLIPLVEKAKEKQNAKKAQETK
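System: Proteasome-associated human UCH37 deubiquitinase; Input: 0.15 nM proteasome in added enzyme buffer; Also added: Ub-AMC substrate from 1 µM stock; Incubation: 30 min compound-proteasome preincubation then 25 min substrate reaction, room temperature; Detection: fluorescence, ex 355 nm, em 460 nm; Read-out: % inhibition of Ub-AMC cleavage fluorescence; Benchmarks: no-proteasome and no-compound wells.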
RanGTP-Impb inh = inhibitors of RanGTP-importin-beta interaction, primary screen, biochemical, FRET, CFP-Ran, YFP-importin-beta, homogeneous; AID 2216, 2009; Ran GTPase (GTP-bound) - importin-beta complex; inhibition, % (no concentration beside the values); cell-free CFP-Ran/YFP-importin-beta FRET ratio; 1.1% of 300,000 active;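 active = most replicates above 15%; inconclusive = exactly half above 15%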;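 also: 0% = DMSO wells and 100% = Ran loaded with GDP instead of GTP; wells of about 40 µL received 100 nL stock; the first replicate is given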
HNF4A DNA FP = change in binding of human HNF4A to DNA, primary screen, biochemical, fluorescence polarization, FITC-DNA; Hepatocyte nuclear factor 4-alpha (Homo sapiens), P41235; 0.3% of 360,000 active; AID 1224865, 2016; 1 h; activity change, % at 10 µM; in the data active = activity change above about 30%, passing the limit was not always enough;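 also: controls were the assay level and a saturating level of protein; the project sought stronger binding though the title names inhibitors; some compounds called inactive have numbers as strong as hits; positive values seem to mean higher polarization but the record does not say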
Target sequence (P41235 whole entry, looked up): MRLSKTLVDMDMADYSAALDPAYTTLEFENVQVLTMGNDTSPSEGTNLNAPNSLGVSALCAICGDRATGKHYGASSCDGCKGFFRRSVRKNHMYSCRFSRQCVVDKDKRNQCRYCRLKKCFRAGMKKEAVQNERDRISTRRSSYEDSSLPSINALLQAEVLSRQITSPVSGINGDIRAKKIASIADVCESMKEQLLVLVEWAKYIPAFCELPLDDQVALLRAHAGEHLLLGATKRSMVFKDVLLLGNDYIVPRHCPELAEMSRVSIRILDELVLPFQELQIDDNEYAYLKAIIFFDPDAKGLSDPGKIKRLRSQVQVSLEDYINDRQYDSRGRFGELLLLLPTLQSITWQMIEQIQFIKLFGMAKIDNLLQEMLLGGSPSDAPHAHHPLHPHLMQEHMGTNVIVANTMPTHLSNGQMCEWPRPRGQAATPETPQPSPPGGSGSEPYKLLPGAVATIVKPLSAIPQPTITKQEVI
MLL AF4-AF9 inh = inhibitors of AF4 peptide binding to AF9, primary screen, biochemical, AlphaScreen, biotin-AF4 peptide, FLAG-AF9, single point; Protein AF-9 (Homo sapiens), P42568; inhibition, % at 10 µM; 0.47% of 350,000 active;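 active = every replicate reaching a set inhibition limit, whatever the replicate mean, cut at about 25% in these data; inconclusive = mean inhibition reaches that limit but some replicates miss it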;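 also: 0% = plate neutral control median and 100% = total signal loss; the record names both 10 and 1 µM as test concentration; the first replicate is given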
FGF22 binding = binders of human FGF22 protein, primary screen, FGF22 synaptogenesis inhibitor project, biophysical, thermal shift, single point; 1.5% of 340,000 active; Fibroblast growth factor 22 (Homo sapiens), Q9HCT0; recombinant FGF22 thermal shift, SYPRO orange fluorescence; percent of sucrose octasulfate shift, DMSO zero; calls only at 9.99 µM;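 active = melting point raised past a set limit in the mean and every replicate; inconclusive = no clear call; three in four hits are not shown here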
Target sequence (Q9HCT0 whole entry, looked up): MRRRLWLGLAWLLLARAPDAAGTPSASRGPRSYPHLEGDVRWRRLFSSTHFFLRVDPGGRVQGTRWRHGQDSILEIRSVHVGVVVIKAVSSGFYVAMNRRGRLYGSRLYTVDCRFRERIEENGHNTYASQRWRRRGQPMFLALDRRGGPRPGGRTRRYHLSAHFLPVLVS
Ecoli growth = E. coli growth inhibition, primary screen, OD600; 0.21% of 330,000 active; Escherichia coli growth, 23 h; stronger effect = lower value; OD600 absorbance (no concentration beside the values);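 active = OD600 absorbance below the run mean of sample wells minus 3.6 SD, in any replicate, cut at about 0.56 in these data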;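 also: stock transfer was 300 nL into about 60 µL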
Vif TR-FRET = inhibitors of Vif binding to APOBEC3G peptide, primary screen, biochemical, TR-FRET, GST-Vif 1-94, biotin-A3G peptide, dose response retest (AID 1117319) | Virion infectivity factor (Human immunodeficiency virus type 1 group M subtype B (isolate … | TR-FRET GST-Vif / biotin-A3G peptide binding; higher % means a stronger effect; test concentration not given here; strong numbers were not always called active | inhibition, %; hits with a dose series show IC50 in µM | 0.57% of 260,000 active;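 active = above the screen mean plus three standard deviations and confirmed in dose response; inconclusive = results disagree or hit not tested in dose response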;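 also: Vif residues 1-94 fused to GST binding biotinylated APOBEC3G peptide 110-148; 0% = full assay without inhibitor and 100% = GST in place of GST-Vif; retest series ran down from 100 µM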
Numbers without * were called inactive; i = inactive; ? = inconclusive; . = not tested or not shown; & = joins results of further samples. A portion of the library. The share of hits here may be higher or lower than overall.

Each structure is followed by: UCH37 DUB inh, RanGTP-Impb inh, HNF4A DNA FP, MLL AF4-AF9 inh, FGF22 binding, Ecoli growth, Vif TR-FRET
Cc1cc(OCC(=O)NCc2ccncc2)ccc1Cl
 : 4.3, 2.1, 3.0, -1.2, i, 0.67, 3%
Cc1ccc(NC(=O)CNCc2cccs2)c(Br)c1
 : 2.8, -2.0, -1.4, -3.6, i, 0.65, .
CSc1nnc(-c2cc3c(s2)-c2ccccc2CC3)o1
 : i, 6.2, -0.1, ., ., 0.75, 0%
COc1ccc(S(=O)(=O)n2cnc3cc(C)c(C)cc32)cc1
 : 2.3, 1.1, -1.5, ., ., 0.69, ?
O=c1cc(-c2ccsc2)oc2ccccc12
 : -0.4, ., -2.6, 0.9, i, 0.67, .
CC1CN(S(=O)(=O)c2cccc(C(=O)N(CCc3ccccc3)Cc3ccccc3)c2)CC(C)O1 (stereo unspecified)
 : 1.6, ?, 1.3, ., ., 0.71, 5%
CSc1nc(N)nc2c1ncn2CC(=O)NCc1ccccc1
 : -1.8, ., 1.5, -2.9, i, 0.71, 2%
O=C(CN1CCN(S(=O)(=O)c2ccc3ccccc3c2)CC1)N1CCc2ccccc2C1
 : 1.5, -3.1, -1.4, ., ., 0.66, 4%
CC(=O)Nc1ccc(N=Cc2c(O)c3ccccc3oc2=O)cc1
 : 0.1, 2.8, 4.9, -2.9, i, 0.69, -14%
CCCCC(=O)Nc1cccn2ncnc12
 : 1.4, -0.4, -0.9, -0.8, i, 0.67, .
O=[N+]([O-])c1ccc(S(=O)(=O)NCCc2ccncc2)cc1
 : 5.2, ?, -3.0, -0.4, ., 0.7, 0%
CSc1ccccc1C(=O)Nc1nccs1
 : 2.7, ?, 0.5, ., ., 0.69, 4%
Cc1ccc(-c2ccc3c(c2)O[C@H](CN(C)C(=O)CC2CC2)[C@H](C)CN([C@@H](C)CO)S3(=O)=O)cc1
 : ., ., 2.2, -6.0&1.3&0.1, i, ., 7%
O=C(c1ccc(F)cc1)N1CCN(c2ccc(N3CCOCC3)nn2)CC1
 : -182, 1.3, -0.8, -1.1, i, 0.71, ?
CN(C)S(=O)(=O)c1ccc(N2CCCC2)c(C(=O)NNC(=O)COc2ccccc2F)c1
 : -8.1, 2.2, -6.5, -1.0, ., 0.66, -2%
Cc1ccc(S(=O)(=O)N2CCN(C(=O)CSCc3ccc(C(C)C)cc3)CC2)cc1
 : 1.1, ., 5.1, ?, i, 0.69, 5%
COc1ccc(OCCSc2ncn[nH]2)cc1
 : 1.6, 4.0, 1.4, ., ., 0.66, 15%
CCC1(CC)NC(=O)N(CC(=O)Nc2ccc(-n3cnnn3)cc2)C1=O
 : 1.4, ., 2.3, -4.2, i, 0.64, .
O=S(=O)(CCc1nc2ccccc2o1)c1ccc(Cl)c(Cl)c1
 : -1.4, -0.2, 0.1, ., ., 0.79, 6%
CS(=O)(=O)N1CCN(c2ccccc2NC(=O)c2cc(Br)ccc2Cl)CC1
 : -0.3, ?, 3.0, 0.6, i, 0.62, 16%
O=C(OCCN1C(=O)c2ccccc2C1=O)C1CCN(S(=O)(=O)c2cccs2)CC1
 : 3.6, -0.8, 5.1, ., ., 0.72, ?
COC(=O)c1ccc(C(=O)NC2CCCc3c2cnn3-c2ccccc2F)nc1 (stereo unspecified)
 : -2.2, 8.5, -3.2, -3.1, i, 0.71, .
CCN(CC)C(=O)c1ccc2sc([C@@H]3O[C@H](CO)[C@H](O)[C@H](O)[C@H]3O)nc2c1
 : ., ., 5.2, -10, i, ., .
O=C(C1=C[C@@H](c2ccccc2)C[C@@H](OCc2ccc(CO)cc2)O1)N1CCOCC1
 : 0.6, 0.5, 0.8, -2.8&0.7, i, 0.77, 8%
CCc1ccc(C(=O)NNC(=O)CC2OC(=O)c3ccccc32)cc1 (stereo unspecified)
 : 3.9, 1.8, 5.7, -4.6, i, 0.7, -4%
Cc1noc(C)c1NC(=O)N(C)C[C@@H]1OCc2cnnn2CCCC(=O)N([C@@H](C)CO)C[C@H]1C
 : ., ., 0.1, -3.2&-0.4&-1.0, i, ., 2%
Cc1ccc(S(=O)(=O)N2c3ccccc3NC(=O)CC2C)cc1 (stereo unspecified)
 : 0.5, -1.7, -2.5, ., ., 0.7, -5%
COc1nonc1NC(=O)CSc1nc2ccccc2[nH]1
 : 0.6, -2.7, 1.1, ., ., 0.72, 14%
CCOC(=O)CC(C)(C)/C(C)=N/Nc1ccc([N+](=O)[O-])cc1[N+](=O)[O-]
 : ., 2.9, -0.3, 4.6, i, ., .
CNC(=S)N1N=C2c3ccccc3CCC2C1c1ccccc1Cl (stereo unspecified)
 : 6.2, 0.5, -5.0, 12, i, 0.67, -8%
O=C(Nc1nc2nccc(-c3ccccc3)n2n1)c1ccccc1
 : -12, 8.5, 0.8, -1.4, i, 0.62, .
CN(Cc1ccccc1)Cc1nc2c(c(=O)n(C)c(=O)n2C)n1CCCc1ccccc1
 : -0.3, -2.9, 1.6, ., ., 0.7, 3%
Cc1cc(C(=O)CSc2nc3ccccc3[nH]2)c(C)n1CC1CCCO1 (stereo unspecified)
 : 1.1, 1.5, -2.0, ., ., 0.65, 32%
COc1ccc2oc(C(=O)NC3(C)CCS(=O)(=O)C3)c(C)c2c1 (stereo unspecified)
 : -45, 2.5, -2.3, -27, i, 0.66, 3%
O=C(CSc1n[nH]c(=O)n1Cc1ccco1)Nc1ccccc1
 : 1.7, 3.0, -0.3, -2.1, i, 0.67, 2%
C[C@H]1CN([C@@H](C)CO)C(=O)c2cc(Br)cnc2O[C@H]1CN(C)S(=O)(=O)c1ccccc1F
 : ., ., -6.0, -1.2&-0.2, i, ., .
O=C(CO/N=C/c1ccc(OC(F)F)cc1)NCc1ccc(F)cc1
 : ., 5.4, -1.9, -1.9, i, ., ?
COc1ccc(Cl)cc1C(=O)N1CCN(c2ccccn2)CC1
 : 5.2, 1.1, -4.0, ., ., 0.68, -4%
COc1ccc(CCNC(=O)COC(=O)CCC(=O)c2ccc(F)cc2)cc1
 : 4.5, 0.3, -0.6, -4.7, i, 0.73, -1%
O=C(CCCN1C(=O)c2ccccc2C1=O)Nc1ccc(S(=O)(=O)N2CCOCC2)cc1
 : 0.7, ?, 1.8, ., ., 0.66, 0%
COC(=O)[C@H](C)NC(=O)Nc1cc(OC)ccc1OC
 : 5.1, 5.9, 1.3, ., ., 0.69, -8%
O=C(CC1C[C@H](C(=O)N2CCCCC2)[C@@]2(CCc3ccccc3)c3[nH]c4ccccc4c3CCN2C1=O)NCCCn1ccnc1 (stereo partly specified)
 : 5.3, ., -3.6, 18, i, 0.7, 2%
O=C(Nc1ccc(C2=CN(Cc3ccccc3)CCC2=O)cc1)OCc1ccccc1
 : 0.2, ., 4.2, ., i, 0.61, .
Clc1ccc(-c2nnc(-c3ccccc3)nc2-c2c[nH]c3ccccc23)cc1
 : 1.9, -1.6, 1.8, -0.6, ., 0.82, 0%
Cc1c(C(=O)c2ccccc2)oc2ccc3ccccc3c12
 : 3.7, -0.7, 0.6, 3.5, i, 0.68, -8%
Nc1c(-c2ccccc2)c(CSc2nc3ccccc3[nH]2)nn1-c1cccc(C(=O)O)c1
 : ., -2.6, -1.0, 1.5, ., ., .
CC1(C)Cc2ccccc2C(N)=C1C#N
 : 5.8, -2.4, 3.9, ., ., 0.71, -1%
C=CCn1c(NCc2cc(C)ccc2O)nc2ccccc21
 : 3.6, 5.6, -0.5, 2.0, i, 0.7, 14%
COc1ccccc1NC(=O)NN1CCCCC1
 : 1.6, -0.1, -1.2, 1.5, i, 0.69, .
O=C1CC2(CCCC2)C(=O)N1CN1CCN(S(=O)(=O)c2ccc(Cl)c(Cl)c2)CC1
 : -2.1, ., 3.4, -1.3, i, 0.71, .
Nc1nc(N)c(Br)c(Nc2ccc(Cl)c(Cl)c2)n1
 : 4.0, ., -4.5, -14, i, 0.57, 5%
c1ccc2c(OCCCN3CCCCCC3)cccc2c1
 : 4.2, 3.4, 2.3, 3.4, i, 0.66, .
Cc1nnc(SC(C)C(=O)Nc2ccc(N3CCOCC3)cc2)n1Cc1ccccc1 (stereo unspecified)
 : 2.8, ., -1.4, 0.9, i, 0.67, 0%
Cc1ccc(C(=O)Nn2cnnc2)c(Cl)c1
 : 1.8, 4.1, 5.0, 1.7, i, 0.67, .
Cc1nn(CC(=O)NCC2CCCO2)c(=O)c2ccccc12 (stereo unspecified)
 : 4.5, -3.2, 3.0, ., ., 0.75, 1%
O=c1[nH]c2ccc(Br)cc2c(=O)o1
 : ., ., 0.0, 0.5, i, ., 1%
Cc1ccc(-c2nc(CS(=O)(=O)CC(=O)NC3CCCCCC3)c(C)o2)cc1
 : -1.0, 7.3, 1.8, 1.6, i, 0.6, .
CCOC(=O)COc1ccc2c(=O)c(-c3ccccc3)coc2c1
 : ., 1.9, -1.8, -4.4, i, ., .
N/C(=N\OC(=O)CCC1CCCC1)c1ccc(Cl)cc1
 : 0.7, ., 4.1, 0.6, i, 0.7, 0%
COc1cccc(-n2c(SCC(=O)Nc3sc4c(c3C(N)=O)CCC4)nc3ccccc3c2=O)c1
 : -16, 3.1, 2.3, ., ., 0.74, ?

(further entries)
Each structure is followed by: UCH37 DUB inh, RanGTP-Impb inh, HNF4A DNA FP, MLL AF4-AF9 inh, FGF22 binding, Ecoli growth, Vif TR-FRET
O=C(COc1ccccc1Cl)Nc1cccc(S(=O)(=O)NC2=NCCCCC2)c1
 : 2.0, 0.9, -1.4, -0.2, ., 0.7, 7%
CC(NC(=O)CCCc1c[nH]c2ccccc12)c1ccc(F)cc1 (stereo unspecified)
 : -5.5, 1.1, 1.2, 3.0, i, 0.66, .
CC1(C2CC2)NC(=O)N(CC(=O)NCc2ccc(Cl)cc2Cl)C1=O (stereo unspecified)
 : 2.7, ., 1.6, -12, i, 0.7, .
N#Cc1c(-c2ccccc2)cc(-c2ccccc2)nc1SCC(=O)O
 : 1.9, 4.5, 2.1, -0.5, i, 0.7, -9%
CC(=O)CSc1ncnc2nc[nH]c12
 : 1.1, -2.8, -2.3, ., ., 0.67, 0%
CCOC(=O)Cc1cc(=O)n2[nH]c(C)c(-c3ccc(OC)cc3)c2n1
 : -3.2, ?, 1.5, ., ., 0.75, 11%
CCCCNC(=O)c1nc(C2CCN(S(=O)(=O)c3ccc(F)c(F)c3)CC2)oc1-c1cccc(C(F)(F)F)c1
 : ., ., -1.2, -1.1, i, ., .
CCn1cc(/C=C(\NC(=O)c2ccc(OC)cc2)C(=O)N2CCN(C)CC2)c2ccccc21
 : 10, 7.0, 1.1, 4.8, i, 0.72, .
COc1ccc(Nc2nc(N3CCCC3)c3ccccc3n2)cc1
 : 0.5, 1.6, -3.7, ., ., 0.68, -5%
